# Arbovirus inh: arbovirus infection inhibition. arbovirus infection cell-based antiviral screen. inhibition, % at 10 µM. actives 0.37% (n = 200,000). AID 1251;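 active = inhibition from about 30%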;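 note: bluetongue infection of BSR cells; cell survival read as ATP light after 72 h; 0% = infected wells without compound and 100% = uninfected wells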
# Mtb growth: M. tuberculosis H37Rv growth inhibitors, H37Rv strain (AID 1626); M. tuberculosis H37Rv growth inhibition; higher % means a stronger effect; inhibition, % at 10 µM; hits with a dose series show IC50 in µM; actives 0.95% (n = 220,000);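 active = confirmed in a dose series; inconclusive = inhibition above 80% but not taken into the dose series; inactive = below 80% or under 30% at every dose of the series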;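 note: bacteria incubated seven days before Alamar blue readout; 0% = bacteria only wells and 100% = bacteria with antibiotic wells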
# Mtb betalactam: beta-lactam sensitization of Mtb H37Rv; inhibition, % at 25 µM; M. tuberculosis H37Rv growth with meropenem, percent inhibition; hits of this screen are not shown here; actives 0.27% (n = 330,000);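 active = about 74% or more and at least 40 points above the plate without the antibiotic, then above 30% in a dose series; inconclusive = first-round hits that could not be retested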;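 note: growth measured after seven days incubation then overnight dye step; 0% = bacteria only wells and 100% = bacteria with antibiotic; twin plates without the antibiotic show which effects depend on it; some results filed as inactive read as strong as hits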
# RecA intein inh: inhibitors of M. tuberculosis RecA intein splicing. P9WHJ3. AID 2221. inhibition, %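 (about 9 µM by stock and volumes)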. cell-free RecA intein splicing, fluorescence. actives 0.75% (n = 290,000); in the data active = inhibition above about 30%; inconclusive = no clear call, values can overlap the other calls;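 note: 0% = vehicle wells and 100% = reference inhibitor control wells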
# Target sequence (P9WHJ3 whole entry, looked up): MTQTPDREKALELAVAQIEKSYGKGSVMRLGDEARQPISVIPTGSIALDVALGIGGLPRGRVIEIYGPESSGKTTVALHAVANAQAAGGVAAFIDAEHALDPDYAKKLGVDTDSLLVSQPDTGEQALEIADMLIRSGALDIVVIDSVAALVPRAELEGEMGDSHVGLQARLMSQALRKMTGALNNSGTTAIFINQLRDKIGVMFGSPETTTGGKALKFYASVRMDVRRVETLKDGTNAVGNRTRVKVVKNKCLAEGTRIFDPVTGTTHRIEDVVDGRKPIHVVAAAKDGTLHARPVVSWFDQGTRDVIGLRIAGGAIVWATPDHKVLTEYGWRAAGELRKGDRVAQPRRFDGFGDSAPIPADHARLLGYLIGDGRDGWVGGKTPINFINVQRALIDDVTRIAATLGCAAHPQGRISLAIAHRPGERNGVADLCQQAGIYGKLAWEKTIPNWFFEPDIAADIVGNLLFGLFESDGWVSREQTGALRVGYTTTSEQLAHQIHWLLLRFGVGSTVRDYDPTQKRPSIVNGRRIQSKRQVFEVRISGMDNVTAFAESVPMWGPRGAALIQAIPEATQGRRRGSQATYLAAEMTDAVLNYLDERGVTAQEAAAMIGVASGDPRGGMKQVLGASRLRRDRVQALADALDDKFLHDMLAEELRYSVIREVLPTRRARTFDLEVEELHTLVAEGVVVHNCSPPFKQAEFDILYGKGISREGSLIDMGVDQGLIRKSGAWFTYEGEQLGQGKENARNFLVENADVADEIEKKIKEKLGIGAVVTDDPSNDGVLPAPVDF
# YopH PTP inh: blocks Yersinia enterocolitica YopH tyrosine phosphatase; inhibition, %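 (about 10 µM by stock and volumes)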; fluorescence Ex485/Em525; actives 0.16% (n = 140,000); AID 898;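 active = inhibition of 50% or more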;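 note: controls were vehicle for no effect and minimum signal wells for full effect; inactives centre near -20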
# Arbovirus inh repeat: second read-out of Arbovirus inh, no call of its own (marks repeat the call); inhibition, %; measured here: 10K subset replicate screen; many hits read low in the repeat;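 first of two repeat runs on a subset; 0% = infected and 100% = uninfected wells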
# Starred values were filed as active, the others as inactive; ? = inconclusive; · = no result given. Not all compounds are listed, so the mix of outcomes need not match the whole.
SMILES,Arbovirus inh,Mtb growth,Mtb betalactam,RecA intein inh,YopH PTP inh,others
O=C(CSc1nnc(Cc2ccc(Cl)cc2)o1)Nc1ccccc1,-3,19%,8,2.6,·,
COc1ccc(NC(=O)CCCNC(=O)Cn2cnc3sc(C)c(C)c3c2=O)cc1OC,·,·,-1,0.6,·,
O=C(NCc1cccnc1)C1CCCN(Cc2cnn(-c3ccccc3)c2-n2cccc2)C1 (stereo not drawn),3,4%,?,0.7,1,
O=c1[nH]c2ccc(NC(=S)Nc3ccc(Cl)cc3Cl)cc2[nH]1,-3,-7%,-7,-2.3,-18,
COc1ccc(CCNC(=O)CN2CCN(c3cccc(Cl)c3)CC2)cc1OC,1,-7%,-2,-2.4,-27,
N#Cc1c(N)nc(SCc2ccncc2)c(C#N)c1-c1cccs1,-4,6%,7,-3.8,-17,
Cc1ccc(-c2nc3c(Cl)cc(Cl)cc3c(=O)n2O)cc1,·,·,73,-2.1,·,
COC(=O)C1=C(C)N(CCc2cc(OC)c(OC)c(OC)c2)C(=O)N[C@H]1c1cccs1,-6,·,-14,-1.2,-2,
O=C(C[n+]1cccc(C(=O)Nc2ccccc2)c1)c1ccc([N+](=O)[O-])cc1,·,·,11,-5.0,·,
COC(=O)CNC(c1ccccc1)c1cc(Br)ccc1NS(=O)(=O)c1ccc(C)cc1 (stereo not drawn),-1,-6%,4,3.3,-44,
COCCCn1c(SCC(=O)NNC(=O)c2cccc(O)c2)nnc1-c1ccncc1,1,-6%,-6,0.9,·,
CS(=O)(=O)c1nc2c(cc1C#N)CCCC2,4,4%,2,·,·,
COc1ccc(C(=O)N/N=C/c2ccc(N(C)c3ccccc3)cc2)cc1,·,·,-6,-19,·,
COc1ccccc1OCc1nnc(SCC(=O)Nc2nnc(C3CC3)s2)n1C,·,·,6,-0.8,·,
C=C(C)C(=O)Oc1ccc(N2C(=O)[C@@H]3C4C=CC(C4)[C@@H]3C2=O)cc1,·,·,-6,-3.3,·,
O=C(O)CCC(=O)N1N=C(c2ccccc2)CC1c1ccc(Br)cc1 (stereo not drawn),·,·,0,-0.7,·,
O=C(Nc1cccnc1)C1COc2ccccc2O1 (stereo not drawn),8,-4%,-5,-0.6,-13,
CC(=O)c1cn(CCOc2ccccc2C)c2ccccc12,·,·,2,2.8,·,
COc1ccc(CNC(=O)C2CSC(c3ccc(OC)cc3)N2C(C)=O)cc1 (stereo not drawn),7,11%,3,0.6,-50,
COc1ccc(C(=O)Nc2ccc3nc(C)c(C)nc3c2)cc1,·,·,-1,0.9,·,
O=C(NCc1ccccc1)NC1(C(=O)N2CCCC2)CCCCC1,5,-3%,0,·,-61,
CCC1S/C(=C(\C#N)C(=O)NCc2ccco2)N(c2ccc(F)cc2)C1=O (stereo not drawn),8,-2%,-9,0.8,-23,
CCOC(=O)c1cc2sc(C)cc2n1CC(=O)Nc1cccc(C)c1C,3,-4%,5,·,-6,
CCN1CCCC1CNCc1ccc(Cl)cc1Cl (stereo not drawn),-2,-4%,1,·,-33,
O=C(CN1CCN(Cc2ccc(Cl)cc2)C1=O)NCCN1CCCC1,-6,·,-2,0.4,-21,Arbovirus inh repeat=2
CCC1COC(c2cccn2Cc2ccccc2Cl)=N1 (stereo not drawn),-4,0%,-6,3.5,·,
O=C(Nc1nc2cc3c(cc2s1)OCO3)c1ccc(N2C(=O)CCC2=O)cc1,·,-4%,-2,-0.6,·,
Cc1c(C(=O)C(=O)N2CCOCC2)c2ccccc2n1Cc1ccccc1,·,·,-3,0.4,·,
Cc1cnc(NC(=O)CCNC(=O)c2ccccc2Cl)s1,2,-8%,-4,-0.3,·,
COc1ccc2c(c1OC)C(=O)OC2CC(=O)c1ccc2c(c1)OCO2 (stereo not drawn),3,-4%,-9,2.3,-19,

# Overlap with the part before: 3 entries, then new ones.
SMILES,Arbovirus inh,Mtb growth,Mtb betalactam,RecA intein inh,YopH PTP inh,others
Cc1c(C(=O)C(=O)N2CCOCC2)c2ccccc2n1Cc1ccccc1,·,·,-3,0.4,·,
Cc1cnc(NC(=O)CCNC(=O)c2ccccc2Cl)s1,2,-8%,-4,-0.3,·,
COc1ccc2c(c1OC)C(=O)OC2CC(=O)c1ccc2c(c1)OCO2 (stereo not drawn),3,-4%,-9,2.3,-19,
N#Cc1cccc2c1-c1ccccc1/C2=N/NC(N)=O,·,·,93,2.3,·,
CN(C)c1ccc(CN(C(=O)c2ccco2)C2CCS(=O)(=O)C2)cc1 (stereo not drawn),-10,-13%,-4,-1.5,-37,
Cc1ccc(NC(=O)CN2CCCC2)c2c1CC(C)(C)O2,7,6%,-1,1.3,·,
COc1cc(C(=O)NNC(=S)NC(=O)c2ccc(F)cc2)cc(OC)c1OC,·,?,40,-4.1,·,
Cc1nc2cc(NC(=O)NCc3ccccc3)ccc2o1,-6,·,-7,-4.2,-23,
CCOC(=O)C[N+](CC)(CC)CC#Cc1ccccc1,0,56%,-2,0.9,-26,
O=C(c1nc2nc(-c3cccs3)cc(C(F)(F)F)n2n1)N1CCN(Cc2ccccc2)CC1,-11,13%,-6,-10.0,-25,
CC(=O)c1cc(C(=O)N2CCc3c([nH]c4ccccc34)C2C2CCCCC2)[nH]n1 (stereo not drawn),4,-6%,95,3.4,·,
CCCN(C(=O)Cn1nc(C)c([N+](=O)[O-])c1C)c1c(N)n(Cc2ccccc2)c(=O)[nH]c1=O,·,·,1,-1.2,·,
O=C(CCC(=O)N(CC(=O)NC1CCCCC1)CC1CCCO1)Nc1nccs1 (stereo not drawn),-3,-4%,-5,0.3,·,
CCN(CC(=O)Nc1ccc2c(c1)OCCO2)C(=O)/C=C/c1cccc(Br)c1,·,·,1,-1.8,·,
COc1ccc(OC)c(/C=N/N=C(\N)c2nonc2N)c1,·,-10%,0,-1.7,·,
Cc1nnc(N2C(=O)C(=O)/C(=C(/O)c3ccc4c(c3)OCCO4)C2c2ccc([N+](=O)[O-])cc2)s1 (stereo not drawn),·,·,4,0.9,·,
O=C(NC(=S)Nc1ccc2c(c1)OCCO2)c1ccccc1F,4,-1%,-12,-1.3,·,
Cc1ccc(-c2ccc(C3C(C#N)=C(N)Oc4n[nH]c(C)c43)o2)cc1 (stereo not drawn),-13,2.4µM*,97,67*,-34,
C=CCOc1ccc(/C=C2\SC(=Nc3cccnc3)NC2=O)cc1,·,3%,-2,4.5,·,
O=C(O)c1ccc2c(=O)n3cc(C(=O)c4ccccc4O)cc(Cl)c3nc2c1,·,-2%,-12,-2.6,·,
Cc1ccc(C(=O)Oc2coc(CSc3nnc(NC(=O)c4cccs4)s3)cc2=O)cc1C,-25,2%,-6,0.8,0,
Cc1ccc(NC(=O)Nc2ccc3c(c2)CCC3)c(C)c1,·,·,-6,-2.6,·,
CC(C)COc1cc(=O)[nH]c(SCC(C)C)n1,5,-2%,0,1.3,-40,

# Two records drawn at random from the list so far, as already listed:
SMILES,Arbovirus inh,Mtb growth,Mtb betalactam,RecA intein inh,YopH PTP inh,others
COc1ccc(OC)c(/C=N/N=C(\N)c2nonc2N)c1,·,-10%,0,-1.7,·,
O=C(O)c1ccc2c(=O)n3cc(C(=O)c4ccccc4O)cc(Cl)c3nc2c1,·,-2%,-12,-2.6,·,

# 3 structures out of the list, sorted by heavy-atom count, smallest number first.
SMILES,Arbovirus inh,Mtb growth,Mtb betalactam,RecA intein inh,YopH PTP inh,others
Cc1ccc(NC(=O)Nc2ccc3c(c2)CCC3)c(C)c1,·,·,-6,-2.6,·,
C=CCOc1ccc(/C=C2\SC(=Nc3cccnc3)NC2=O)cc1,·,3%,-2,4.5,·,
Cc1nnc(N2C(=O)C(=O)/C(=C(/O)c3ccc4c(c3)OCCO4)C2c2ccc([N+](=O)[O-])cc2)s1 (stereo not drawn),·,·,4,0.9,·,

# Carrying on:
SMILES,Arbovirus inh,Mtb growth,Mtb betalactam,RecA intein inh,YopH PTP inh,others
O=C(Nc1ccc2nn(-c3ccccc3)nc2c1)c1ccc2c(c1)OCO2,-5,2%,-8,-1.5,24,
CSCCC(N=C1NS(=O)(=O)c2ccccc21)C(=O)NCc1ccccc1F (stereo not drawn),·,·,-19,1.4,·,
N#Cc1nc(Cc2ccccc2)oc1N1CCC(C(N)=O)CC1,8,3%,-16,-2.6,-20,
CC1(C)CC2CC(C)(CN2C(=O)COC(=O)Cn2[nH]c(=O)c3ccccc3c2=O)C1 (stereo not drawn),-4,-4%,?,1.8,-9,
COc1ccccc1C(=O)NC(CCSC)C(=O)NCCCn1nc(C)cc1C (stereo not drawn),·,·,-2,2.1,·,
CC1=CS(=O)(=O)CC1SC(=S)N(C)C1CCS(=O)(=O)C1 (stereo not drawn),4,2%,-8,0.2,·,
COc1ccc2[nH]c(=O)c(-c3noc(-c4ccccc4)n3)cc2c1,-6,11%,54,-27,-23,
Cc1cc(NC(=O)/C=C/c2ccccc2Cl)n(-c2nc3ccccc3[nH]2)n1,-13,67%,·,-2.6,10,
CC1CCCC(NC(=O)CCNC(=O)c2ccccc2Cl)C1C (stereo not drawn),·,·,-9,-1.3,·,
Cc1ccc(C(=O)CSc2nnc(COc3cccc(C)c3)o2)cc1,3,-3%,0,1.2,-34,
COc1cc2nc(Nc3cccc(F)c3)nc(N)c2cc1OC,·,·,44,0.2,·,
CNc1nc(-c2ccc3c(c2)CCN3S(=O)(=O)c2ccccc2)c(C)s1,-7,-5%,-2,-0.8,·,
CCNc1cc(=O)n(C)c(=O)n1C,-1,-3%,-8,-0.8,-40,
O=C(c1cc(Cl)cc(Cl)c1)N1CCC(=O)N(C(COCc2ccccc2)Cc2ccccc2)CC1 (stereo not drawn),-25,8%,-6,12,1,
O=C(Nc1nncs1)c1cccnc1Cl,-1,0%,-6,0.3,-16,
COC(=O)c1ccccc1NC(=O)COC(=O)c1ccc(C)c(NC(=O)c2ccco2)c1,-9,-3%,-5,-4.0,13,
COC(C[C@@H]1O[C@H]1[C@@H](O)[C@@H](C)OCc1ccccc1)OC,·,-6%,·,-0.6,·,
CC(=O)C1=NN(c2ccccc2)C(c2cccs2)N1c1ccccc1 (stereo not drawn),-20,1%,-10,-63,8,
CCOc1ccccc1NC(=O)Cn1cnc2c(nnn2-c2cccc(OC)c2)c1=O,-9,6%,2,1.6,2,Arbovirus inh repeat=-3
Cc1cc(-c2ccccc2)n(-c2cc(N/N=C/c3ccccc3O)ncn2)n1,-31,1%,4,·,-23,
CC(C)N(CCCNC(=O)C1CCN(S(=O)(=O)N2CCOCC2)CC1)Cc1ccccc1,11,·,-1,-4.6,-35,
CCOC(=O)N1C2=NC(C(=O)OC)=C(C(=O)OC)[C@@H]3N(C)c4ccccc4[C@]23C[C@H]1C(=O)OC,·,-2%,-5,0.8,·,
CCO[C@@H]1OC(C(=O)N2CCCCCCC2)=C[C@H](c2ccc3c(c2)OCO3)[C@H]1CCCO,-4,·,3,-0.6,·,
Nc1nc(COc2ccc(F)cc2Cl)nc(N2CCCCC2)n1,-3,3%,-1,1.3,·,
CSC1=NSC2=NC(=O)/C(=C\c3coc4ccccc4c3=O)C(=N)N12,5,-7%,3,·,-40,
CCOC(=O)c1cc(-c2cccc(C(F)(F)F)c2)nc2nc(SC)[nH]c(=O)c12,4,3%,3,-1.3,-19,
CC(=O)N1CCc2cc(S(=O)(=O)NCCC(=O)Nc3cccc(C)c3)ccc21,3,-3%,-3,-2.1,11,
O=C(CSc1nnc(-c2ccccn2)o1)Nc1ccccc1,4,2%,-4,-0.9,·,
COc1ccccc1NC(=O)CN(Cc1ccccc1)S(C)(=O)=O,-1,-3%,-4,-0.5,3,
CN(CC(=O)Nc1c(Cl)cccc1Cl)C(=O)c1cccc(S(=O)(=O)NCc2ccccc2)c1,·,·,-4,0.0,·,
COC(=O)c1nc2cc(C)ccn2c1F,9,-3%,2,-0.4,-31,Arbovirus inh repeat=6
CCOc1cccc(C2C(C(=O)c3cccs3)=C(O)C(=O)N2Cc2cccnc2)c1 (stereo not drawn),5,-5%,-8,1.6,·,
CCOC(=O)N1CCN(c2c(NCCc3ccccc3)c(=O)c2=O)CC1,5,8%,10,-0.3,-17,
Cc1ccc(N2C(=O)[C@@H]3C(c4cccnc4)=NO[C@@H]3C2=O)c(C)c1,·,-5%,-16,·,·,
CN1CCC(NC(=O)c2cc(-c3cccc(Br)c3)nc3ccccc23)CC1,·,·,-12,-0.5,·,
Cn1nccc1C(=O)NC1CCN(Cc2ccccc2)CC1,·,·,-4,-1.5,·,
CC1OC(NCCc2ccccc2)C(O)C(O)C1O (stereo not drawn),1,2%,-6,-5.7,-19,
O=c1c2ccccc2cnn1-c1ccc(Br)cc1,-13,8%,-9,0.0,-36,
CCN(CC)c1ncnc2sc(C(=O)N3CCN(c4ccc(OC)cc4)CC3)c(C)c12,6,12%,13,-2.1,-43,
CCCCNC(=O)c1onc(CSc2cccc(F)c2)c1C(=O)O,10,-7%,2,0.4,-107,
